Assay outcomes from PubChem.
Vaccinia mCherry: inhibitors of vaccinia virus infection (mCherry reporter signal). Vaccinia virus mCherry reporter infection, fluorescence; about a quarter of the inactives have no number. Potency, µM (doses to about 36.5 µM), for the others: at the highest dose activity change, negative = inhibition, usual class: inhibitors. 310,000 compounds, 0.63% hits. AID 720579; active = well fitted inhibition curve with a large enough effect; inconclusive = small, poorly fitted or top-dose-only effect; inactive = no such curve, though single readings can be large or run the other way; tested in A549 cells; further: nearly all actives have a fitted effect of over 35% in size; inactives centre near -10
Vaccinia Venus: inhibitors of vaccinia virus (Venus reporter); 330,000 compounds, 0.46% hits; AID 720580; Vaccinia virus Venus reporter expression, fluorescence; Potency, µM (doses to about 36.5 µM), for inactives: at the top dose activity change, negative = inhibition, actives largely listed as inhibitors; active means well fitted inhibition curve with a large enough effect; inconclusive means small, poorly fitted or top-dose-only effect; inactive means no such curve, though single readings can be large or run the other way; tested in A549 cells; further: nearly all actives have a fitted effect of over 30% in size; inactives centre near -10
* = called active by the depositor; i = inactive; ? = inconclusive; . = not tested or not shown; [ ] = remark or other dose. On the % scale 0 is the no-effect control and ±100 the full control effect; potency means the concentration at half of the fitted maximal effect.

Under each structure – Vaccinia Venus | Vaccinia mCherry
O=S1(=O)N[C@@H](Cc2ccccc2)COc2cccc(N3CCSCC3)c21
    15% | 17%
C[C@@H]1CN([C@H](C)CO)C(=O)CCCn2nncc2CO[C@H]1CN(C)C(=O)c1ccccc1
    -14% | -5%
Cn1c(SCCC(=O)O)nnc1-c1ccncc1
    -5% | -5%
CC(C)c1ccc(S(=O)(=O)c2nnn3c2nc(N2CCCC2)c2sccc23)cc1
    -15% | -6%
O=S(=O)(c1ccc(Br)cc1)N1CCOC12CCCCC2
    0% | -6%
O=C(CCN1CCN(Cc2ccccc2)CC1)Nc1cccc(Br)c1
    -20% | -9%
CC1CC(C)(C)C2=NCCN21 (stereo not drawn)
    -4% | i
CSCC[C@H](NC(=O)COc1ccc(Cl)cc1Cl)c1nc2ccccc2[nH]1
    ? | -15%
O=C(NC1CCCCC1)c1ccc(Cn2cc(Br)cn2)o1
    -20% | .
C[C@@H]1CN([C@@H](C)CO)C(=O)CCCn2cc(nn2)CO[C@H]1CN(C)S(=O)(=O)c1ccc(-n2cccn2)cc1
    -8% | i
CC1(C)Cc2cccc(OCC(=O)NCc3cccs3)c2O1
    -13% | -6%
O=C1C(=Cc2ccc(Cl)cc2)CCc2ccccc21
    9% | 2%
COC(=O)CNC(=O)c1cccs1
    -8% | -13%
CC1(C)C(c2cccs2)=[N+]([O-])C2(CCCCC/C2=N\NC(N)=O)N1O (stereo not drawn)
    -17% | i[1.46 µM]
COc1ccccc1N1CCN(S(=O)(=O)CCNC(=O)COc2ccccc2F)CC1
    -9% | -18%
O=c1c2ccccc2nnn1CSc1nnc(Nc2ccccc2)s1
    -5% | -14%
CCOC(=O)c1ccc(NC(=O)C(=O)NCC2CCCO2)cc1 (stereo not drawn)
    -19% | .
Cc1ccc(C)c(NC(=O)CN(C)S(=O)(=O)c2ccc(F)cc2)c1
    -3% | 25%
CC(=O)N/C(=C/c1ccc(OC(F)F)cc1)C(=O)O
    -4% | i
O=C(NNC(=O)c1cc(OCC(F)(F)F)ccc1OCC(F)(F)F)c1ccc(Cl)c(Cl)c1
    -19% | .
O=C(COc1cccnc1[N+](=O)[O-])Nc1ccc2c(c1)OC(F)(F)O2
    -7% | -18%
CCCn1c(C)cc(C(=O)COC(=O)c2cc(=O)[nH]c3ccccc23)c1C
    -13% | -4%
COc1cc(C)c(NC(=S)Nc2ccc(Cl)c(Cl)c2)cc1OC
    -22% | -7%
COC(=O)c1ccc(NC(=O)CN2CCN(c3ccccc3C)CC2)cc1
    -10% | -11%
O=c1[nH]c2cc(NCCO)c([N+](=O)[O-])cc2[nH]1
    -4% | -11%
CCNC(=O)CN(c1ccc(C)cc1)S(=O)(=O)c1ccccc1
    5% | -11%
CCC(=O)Nc1nc(C)c(-c2csc(Nc3ccccn3)n2)s1
    -23% | ?
Cc1ncc2c(c1CNC(=O)c1ccccc1F)CCN(C(=O)c1[nH]c3ccc(Cl)cc3c1C)C2
    -3% | 1%
Cc1ccc(NS(=O)(=O)c2ccc3[nH]c(=O)oc3c2)c(C)c1
    0%[7.34 µM] | -3%[7.34 µM]
Cc1ccc(S(=O)(=O)c2nc(-c3cccs3)oc2N2CCC(C(N)=O)CC2)cc1
    -8% | i
CCC(/C=N/NC(=O)C1COc2ccccc2O1)CC (stereo not drawn)
    -2% | -13%
CCC(Sc1nncn1C)C(=O)Nc1nnc(-c2ccc(Cl)cc2)s1 (stereo not drawn)
    -10% | -8%
O=C(CSc1nncs1)NNC(=O)c1ccccc1Br
    1% | i
O=C(CCC(=O)Nc1ccc(Br)cc1)N/N=C/c1ccccc1O
    ? | 5.6µM*
CCc1ccc(NC(=O)CSc2nnc(C)c(=O)n2N)cc1
    -8% | i
CN(Cc1ccccc1)C(=O)c1cccc(NC(=O)c2nsc3ccccc23)c1
    0% | -1%
O=C(NC1=NCCS1)c1cc(-c2cccs2)nc2ccccc12
    -1% | 50%[activator]
CCC(=O)Nn1c(C)nnc1C
    -21% | .
COc1ccc(C(=S)N2CCN(c3cccc(Cl)c3)CC2)c(OC)c1
    -16% | ?
Cc1c(NC(=O)C(C)OC(=O)c2cc(Cl)ccc2O)c(=O)n(-c2ccccc2)n1C (stereo not drawn)
    -7% | -9%
COc1cccc(C(C)(O)c2nc(-c3cc4ccccc4o3)cs2)c1 (stereo not drawn)
    -28% | ?
Cn1nc(NC(=O)C(F)(F)F)c2ncc(-c3ccc(Cl)cc3)nc21
    -26% | -12%
Oc1ccc(N=Cc2ccc(O)c(O)c2)cc1
    -11% | -18%
COc1ccc(N2CC(C(=O)NCc3ccco3)CC2=O)cc1 (stereo not drawn)
    8% | -11%
O=C(O)COc1ccc(/C=N/NC(=O)Cc2ccc(Cl)cc2)cc1
    -10% | i
Cc1ccc(S(=O)(=O)Nc2cccc(C(=O)NC3CCN(Cc4ccccc4)CC3)c2)cc1F
    ? | ?
COc1ccccc1C(=O)Nc1ccc2oc(-c3cccc(Cl)c3Cl)nc2c1
    -11% | -16%
COc1cccc(NC(=O)n2nc(N)cc2-c2ccc(Cl)cc2)c1
    -28% | ?
Cc1ccc2c(c1)N(CC(=O)N1CCCCCC1)C(=O)CO2
    -10% | i
CC1CCC2(CC1)NC(=O)N(Cc1nc(-c3ccccc3)no1)C2=O (stereo not drawn)
    -7% | -3%
CCC(=O)N1c2ccccc2CC1C(=O)NCCCN1CCN(c2ccc(OC)cc2)CC1 (stereo not drawn)
    -1% | -14%
O=C(NCc1ccc(Cl)cc1)C1CCC(CNS(=O)(=O)c2ccccc2)CC1 (stereo not drawn)
    -12% | -16%
Cc1[nH]c2ccc(F)cc2c(=O)c1SC(F)(F)C(F)F
    -10% | -20%
Cn1c(=O)c2c(nc(C3CC4C5CCC(C5)C4C3)n2C)n(C)c1=O (stereo not drawn)
    -10% | -15%
CCCn1c(=O)c(C(=O)NCc2cccnc2)c(O)c2ccccc21
    -16% | -15%
COc1ccc(C(=O)OCCN2CCOCC2)cc1OC
    6% | -6%
O=C1C(=Cc2ccccc2O)SC(=S)N1CCCN1CCOCC1
    ? | ?
Cc1ccc(NC(=O)CN(C)C(=O)CSc2nc3ccccc3o2)cc1
    -23% | .
CCOc1ccc(Nc2nc(NCc3ccco3)nc(N)c2[N+](=O)[O-])cc1
    -7% | -24%
COC(=O)NNC(=O)COc1cc(C)ccc1C
    -9% | -8%

Complete entries, quoted from the list. Order of screens: Vaccinia Venus | Vaccinia mCherry
`Cn1c(SCCC(=O)O)nnc1-c1ccncc1` reads -5% | -5%
`CCC(=O)Nn1c(C)nnc1C` reads -21% | .

Sorted by heavy-atom count (falling): five of the compounds above.
Under each structure – Vaccinia Venus | Vaccinia mCherry
CCC(=O)N1c2ccccc2CC1C(=O)NCCCN1CCN(c2ccc(OC)cc2)CC1 (stereo not drawn)
    -1% | -14%
O=C(NCc1ccc(Cl)cc1)C1CCC(CNS(=O)(=O)c2ccccc2)CC1 (stereo not drawn)
    -12% | -16%
CCOc1ccc(Nc2nc(NCc3ccco3)nc(N)c2[N+](=O)[O-])cc1
    -7% | -24%
Cc1ccc(NC(=O)CN(C)C(=O)CSc2nc3ccccc3o2)cc1
    -23% | .
COc1cccc(NC(=O)n2nc(N)cc2-c2ccc(Cl)cc2)c1
    -28% | ?

Next part.
Under each structure – Vaccinia Venus | Vaccinia mCherry
C/C(=C\C(=S)Nc1ccccc1)Nc1ccc2ccccc2c1
    6% | -14%
Cc1nn(C(=O)/C(C#N)=C/N(C)C)c(C)c1C
    -13% | -11%
O=P(Oc1ccccc1)(Oc1ccccc1)N1CCOCC1
    -10% | -15%
COc1ccc(C2C(C(=O)c3ccco3)=C(O)C(=O)N2CCN2CCOCC2)c(OC)c1 (stereo not drawn)
    -12% | 0%
CCCCn1c(O)c(C=NCc2ccc3c(c2)OCO3)c(=O)[nH]c1=O
    -14% | -1%
O=C(CSc1n[nH]c(=O)n1-c1ccc2c(c1)OCCO2)Nc1ccccc1
    -5%[7.34 µM] | i[7.34 µM]
CCCn1c(SCC(=O)Nc2ccccc2N2CCOCC2)nc2c1c(=O)n(C)c(=O)n2C
    0% | -6%
CCn1c(Cc2ccc(OC)cc2)nnc1SCc1nc2ccccc2c(=O)[nH]1
    0% | 9%
CC1CCN(c2nc3c(S(=O)(=O)c4cccc(Cl)c4)nnn3c3ccsc23)CC1
    -23% | -27%
COc1ccc(-c2noc(-c3ccc(N4CCN(c5ccccc5OC)CC4)c([N+](=O)[O-])c3)n2)cc1
    11% | 1%
CCN(CC)Cc1c(O)ccc2c(=O)c(-c3ccccc3OC)coc12
    -11% | -13%
CCSS(=O)(=O)c1cccc2cccnc12
    -18% | ?
CCOC(=O)c1cc(NC(=O)C2C3CCC(O3)C2C(=O)O)cc(C(=O)OCC)c1 (stereo not drawn)
    -14% | i
C=CCN1CCN(C(CC(C)C)c2nnnn2CCOC)CC1 (stereo not drawn)
    7% | .
CCOC(=O)CNC(=O)CSc1nc(-c2ccc(C)cc2)ns1
    -20% | -1%

Of the compounds above, these contain a nitro group on carbon:
Under each structure – Vaccinia Venus | Vaccinia mCherry
O=C(COc1cccnc1[N+](=O)[O-])Nc1ccc2c(c1)OC(F)(F)O2
    -7% | -18%
O=c1[nH]c2cc(NCCO)c([N+](=O)[O-])cc2[nH]1
    -4% | -11%
CCOc1ccc(Nc2nc(NCc3ccco3)nc(N)c2[N+](=O)[O-])cc1
    -7% | -24%
COc1ccc(-c2noc(-c3ccc(N4CCN(c5ccccc5OC)CC4)c([N+](=O)[O-])c3)n2)cc1
    11% | 1%

(cont.)
Under each structure – Vaccinia Venus | Vaccinia mCherry
CCN(CC)c1ccc(-c2nnc(SCC(=O)NCc3ccco3)n2C)cc1
    -23% | -18%
CCn1cc(S(=O)(=O)c2cc(C)cc(C)c2)c(=O)c2cc(F)c(N3CCOCC3)cc21
    -12% | -1%
CCOC(=O)C(NC(=O)Nc1ccc(O)cc1)(c1ccccc1)C(F)(F)F (stereo not drawn)
    -13% | i
Cc1cccn2c(CNCCc3ccco3)c(C(=O)N3CCOCC3)nc12
    3% | -23%
CCCC(NC(=O)C(C)N1CCN(S(=O)(=O)c2ccccc2)CC1)c1ccccc1 (stereo not drawn)
    -14% | -28%
Cc1cc(OCc2ccc([N+](=O)[O-])cc2)c2c3c(c(=O)oc2c1)CCCC3
    -2% | -8%
COc1ccc(OC)c(C(=O)NC(CC(N)=O)c2ccc(N3CCC(Cc4ccccc4)CC3)c([N+](=O)[O-])c2)c1 (stereo not drawn)
    -15% | i
CCc1ccc(CN2CCC(n3nccc3NC(=O)Cc3ccccc3)CC2)o1
    -2% | i
CCOc1ccc(NC(=S)NCc2ccc3c(c2)OCO3)cc1
    -3%[7.34 µM] | -3%[7.34 µM]
CCCS(=O)(=O)NC(=O)C1(C)CCCN(C(=O)c2ccc(C(F)(F)F)nc2C)C1 (stereo not drawn)
    3% | 17%
Cc1ccc(N(CC(=O)NCCc2ccccc2)S(=O)(=O)N(C)C)cc1
    6% | 0%
CCc1ccc(-c2nc(SCC(=O)N(C)C3CCS(=O)(=O)C3)n[nH]2)cc1 (stereo not drawn)
    -5% | -13%
COc1cc(Cl)ccc1OCc1cc(C(=O)N2C[C@]3(C)C[C@H]2CC(C)(C)C3)no1
    -26% | -11%
Cc1nc(-c2ccc(NS(C)(=O)=O)cc2)cs1
    -17% | .
COc1ccc(-c2cc(C)no2)cc1S(=O)(=O)NCc1ccc(OC(C)C)cc1
    -16% | i
O=C(CSc1nn(-c2ccc(Cl)cc2)c(=S)s1)N1CCN(C(=O)c2ccco2)CC1
    -9% | -24%
Cc1nc(CS(=O)(=O)c2ccccc2)cc(Sc2ccc(Cl)cc2Cl)n1
    ? | .
CC1(C(=O)Nc2nccs2)CCN1C(=O)CC(c1ccccc1)c1ccccc1 (stereo not drawn)
    -4% | 12%
CCC(OC(=O)C(CC(C)C)NC(=O)c1ccccc1)C(=O)Nc1nnc(C)s1 (stereo not drawn)
    -10% | i
Nc1nc(NCC2CCCO2)nc(Nc2ccccc2)c1[N+](=O)[O-] (stereo not drawn)
    -28% | -22%
O=c1c2c3c(sc2[nH]c(=S)n1Cc1ccco1)CCC3
    -2% | 8%
CC(=O)NC(c1ccccc1)c1cc([N+](=O)[O-])c2cccnc2c1O (stereo not drawn)
    ? | ?
N#Cc1ccc(S(=O)(=O)N2CCN(CN3C(=O)CC4(CCCC4)C3=O)CC2)cc1
    -4% | i
COCCNC(=O)c1onc(CSc2ccc(F)cc2)c1C(=O)NCCOC
    -14% | i
CCN(CC)Cc1c(O)c(Cl)cc2c(C)cc(=O)oc12
    -1% | -10%
O=C(C1=C[C@H](c2ccc(C(F)(F)F)cc2)C[C@H](OCCCCO)O1)N1CCN(Cc2ccccc2)CC1
    -19% | i
CN(C)/N=C1\C(=O)N(CN2CCN(c3ccccc3)CC2)c2ccccc21
    -4% | -10%
COc1cc(OC)c2c(-c3cccc(/C=C/c4ccc(F)cc4)c3)cc(=O)oc2c1
    -26% | -26%
COCC1CCCCC1OS(N)(=O)=O (stereo not drawn)
    3% | i
OCCC1CN(Cc2nc3ccccc3s2)CCN1CCc1ccccc1 (stereo not drawn)
    -10% | -6%
O=C(Nc1ccc(Br)cc1)c1ccc(Br)c(S(=O)(=O)Nc2cccnc2)c1
    0% | -17%
CC(=O)Nc1c(Cl)n(C(C)=O)c2ccccc12
    1% | .
